Bioassay records deposited in PubChem BioAssay by ICCB-Longwood Screening Facility, Harvard Medical School.
Anaer choline gr: growth inhibitors of anaerobic choline-fed gram-negatives, minimal medium, absorbance | calls only | Gram-negative bacterium anaerobic choline minimal medium; stronger effect = lower value; many inactives read as strong as hits in the columns shown | AID 1963822, 2024 | actives 0.2% (n = 55,000);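 active = growth z-score on choline under -2 at 7 or 20 h with little or no fall on glycerol, limits in tiers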;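 also: stock transfer was 300 nL into about 50 µL; the organism is E. coli; final concentration not given here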
Anaer choline gr early: recorded beside Anaer choline gr, whose call it bears; z-score; measured here: choline growth z-score, timepoint 1;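 score of optical density at 7 h as mean of two plates; lower means less growth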
Numbers without * were called inactive; i = inactive; & = joins results of further samples. The list is partial (hit frequency here may not be typical).

SMILES | Anaer choline gr | Anaer choline gr early
COc1ccc(Br)cc1C(=O)Nc1cc2c(cc1Sc1ccccc1)n(C)c(=O)n2C | i | 0.2
O=C(NC1CCCC1)c1csc(N2CCCC2)n1 | i | 0.27
CCn1c(Cn2cccn2)nc2cc(NC(=O)C3CCCCC3)ccc21 | i | -0.16
COc1cccc(-c2cc(C(F)(F)F)n3ncc(C(=O)NCc4ccccc4OC)c3n2)c1 | i | -1.1
CC/C=C\C/C=C\C/C=C\C/C=C\C/C=C\C/C=C\CCC(=O)O[C@H](COCCCCCCCCCCCCCCCC)COP(=O)([O-])OCC[N+](C)(C)C | i | -1.5
Cn1c(=O)c2c(nc(Sc3nnc(NC(=O)NCC4CCCO4)s3)n2C)n(C)c1=O (stereo not given) | i | 0.06
COc1ccc(C(=O)N2CCN(c3cc(N(C)C)nc(C)n3)CC2)cc1 | i | 0.32
Cc1ccc(-n2ccnc(NCCC3=CCCCC3)c2=O)cc1 | i | -1.4
O=C(NC1CC1)c1c(-n2cccc2)sc2c1CCC2 | i | 0.04
Cn1c(=O)n(-c2ccc3c(c2)OCO3)c2nc(-c3ccccc3)nc(C(N)=O)c21 | i | -0.28
Cc1ccc(S(=O)(=O)NCCn2c(-c3ccncc3)nc3cccnc32)cc1C | i | -0.75
CCC(C(=O)NCc1ccc(C)cc1)N1C(=O)CCCc2ccccc21 (stereo not given) | i | -1.1
COc1ccc(CC(=O)NCCc2n[nH]c(Cc3ccc(C)cc3)n2)cc1OC | i | 0.06
CC1CCN(C(=O)Cn2cc(SCC(=O)N3CCCCC3)c3ccccc32)CC1 | i | -0.25
CC1CCN(C(=O)C2CCN(c3ncnc4c3sc3ncccc34)CC2)CC1 | i | 0.09
Cc1cccc(N2CCN(C(=O)c3cccn4c(=O)c5ccccc5nc34)CC2)c1C | i | 0.17
Cc1cccc(C)c1Nc1c(-c2cccc(O)c2)nc2sccn12 | i | -0.83
CC1(C)CC(=O)c2cc(C(=O)Nc3ccc4c(c3)OCCO4)c(=O)[nH]c2C1 | i | 0.45
CCC(C(=O)NC(C)C)n1cnc2oc(C)c(C)c2c1=O (stereo not given) | i | -0.03
CCc1ccc(NC(=O)Cn2c(SCc3ccc(F)cc3)nc3cccnc32)cc1 | i | -1.5
CC(=O)Nc1ccc(S(=O)(=O)Nc2ccc(Nc3cc(N(C)C)nc(C)n3)cc2)cc1 | i | -0.64
Cc1cccc(N2C(=O)c3cc4sccc4n3CC2(C)C(=O)NC2CCCCC2)c1C (stereo not given) | i | -0.63
Cc1cccc(NC(=O)c2ccc3nnc(SCC(=O)Nc4cc(Cl)ccc4C)n3c2)c1 | i | 0.32
Cn1nc(C(=O)N2CCCC2)c2c1CCN(C(=O)CCC(=O)NCc1ccccn1)C2 | i | -0.56
O=C(NCc1ccccc1)C1CCN(C(=O)c2cccc(NS(=O)(=O)c3ccccc3)c2)CC1 | i | -1
CCn1c(=O)n(CC(=O)O)c(=O)c2cnc(-c3ccccc3)nc21 | i | 0.77
O=c1c2c(-c3ccc(Cl)cc3)csc2ncn1C1CCCCC1 | i | 1.5
Cc1ccccc1S(=O)(=O)N1CCOc2ccc(COCc3ccc(F)cc3)cc2C1 | i | 1.9
Cc1cccc(CSc2nc3ccccc3n3c(C)nnc23)c1 | i | 0.72
CCN1CCC(CCNC(=O)c2nc(N3CCC(C)CC3)c3cn(C)nc3n2)CC1 | i | 0.47
C=C(NC(=O)C(=C)NC(=O)c1csc(C2=N[C@H]3c4csc(n4)[C@H]4NC(=O)c5csc(n5)[C@H]([C@@](C)(O)[C@@H](C)O)NC(=O)[C@H]5CSC(=N5)/C(=C\C)NC(=O)[C@H]([C@@H](C)O)NC(=O)c5csc(n5)[C@]3(CC2)NC(=O)[C@H](C)NC(=O)C(=C)NC(=O)[C@H](C)NC(=O)[C@H](C(C)CC)N[C@@H]2C=Cc3c([C@H](C)O)cc(nc3[C@H]2O)C(=O)O[C@@H]4C)n1)C(N)=O (stereo not given in full) | i | 0.68
COc1ccc(Oc2nc(N3CCCC3)c(Cl)c3c2N(Cc2ccccc2)CCS3(=O)=O)cc1 | i | 0.57
CCOC(=O)CCc1c(C)nc2nc(CNc3ccccc3F)[nH]n2c1=O | i | -0.3
COc1ccc(OCC(=O)N2CCN(c3ncnc4c3nnn4-c3ccc(Cl)cc3)CC2)cc1 | i | -0.05
COc1ccc(-c2nn3c(N4CCOCC4)cc(C)nc3c2C)cc1OC | i | 1.1
CCOCCCN(C(=O)c1cc(=O)n(C)c2c1c(=O)n(C)c(=O)n2C)C1CCN(C)CC1 | i | -0.35
CN1CCN(C(=O)c2ccc(N)cc2)CC1 | i | 0.91
COc1ccc2cc3c(nc2c1)N(C(=O)c1ccc(S(=O)(=O)N2CCCC2)cc1)CC3 | i | 1.1
CCc1ccccc1NC(=O)CCn1c(C(F)(F)F)nc2cc(S(=O)(=O)N(C)C)ccc21 | i | -0.48
Cc1ccc(-c2nc(CN3CCCC(C(=O)NCC(C)C)C3)no2)cc1 (stereo not given) | i | -0.46
Cc1cc(Sc2ccc(N)cc2)n2nc(C)nc2n1 | i | 0.78
Cc1ccc(NS(=O)(=O)c2cc(N3C(=O)CCS3(=O)=O)ccc2C)cc1Br | i | 0.41
O=S(=O)(Nc1ccc(-c2ccc(N3CCOCC3)nn2)cc1)c1cc(F)ccc1F | i | 0.54
O=C(Nc1cnc(N2CCN(c3ccccc3)CC2)c(C(=O)O)c1)c1ccccc1Cl | i | -0.95
COc1ccc(CNS(=O)(=O)c2c(C)sc(C)c2-c2cc(C(F)(F)F)on2)cc1 | i | -0.34
Cc1nn(C)c(C)c1CCN(C)C(=O)Nc1ccc(F)cc1F | i | -0.13
O=C(Nc1ccc(Br)cc1)N1CCCC1c1ccc(F)cc1 (stereo not given) | i | -0.41
COc1nc2ccccc2nc1C(=O)Nc1cccc(C)c1 | i | -0.07
CC1CCN(S(=O)(=O)c2ccc3c(c2)CCC(=O)N3CC(=O)N2CCCC2)CC1 | i | -0.12
CCCCc1nc(Cl)c(CO)n1Cc1ccc(-c2ccccc2-c2nnn[nH]2)cc1 | i | -0.03&0.68
O=C(C1CCCCC1)N1CCCN(Cc2noc(-c3ccccc3)n2)CC1 | i | 0.63
COC(=O)c1c(N2CCCC2=O)c2cc(F)ccc2n1C | i | -1.2
CCc1noc2nc(C)nc(NCC3CCCO3)c12 (stereo not given) | i | -0.59
CC(C(=O)Nc1ccccc1Cl)n1nnc2sc3c(c2c1=O)CCCC3 (stereo not given) | i | 1.3
c1cnc(N2CCN(Cc3ccc4c(c3)OCO4)CC2)nc1 | i | 0.08&-0.87&0.09&-1.3&-0.99
COc1ccc(-c2nc(Cn3nc(-c4cccc(OC)c4)c4c(C)onc4c3=O)c(C)o2)cc1 | i | -0.02
Cc1nn(-c2ccc(-c3noc(C4CCCC4)n3)cc2)cc1C(=O)N1CCCC1 | i | 0.94
CCOC(=O)N1CCC(Nc2nccc(-n3nc(C)cc3C)n2)CC1 | i | -0.97
O=C(c1noc2c1CSc1ccccc1-2)N1CCN(c2ccccn2)CC1 | i | -0.43
CCn1c(CCc2ccc(NS(=O)(=O)c3ccc(Br)cc3)cc2)nc2ccccc21 | i | 1.6

Later entries:
SMILES | Anaer choline gr | Anaer choline gr early
COc1ccccc1CNc1c(C)c(C)nc2ncnn12 | i | -1.4
OCCOCCN1CCN(C2=Nc3ccccc3Sc3ccccc32)CC1 | i | 0.41&0.3&0.05&-0.44
Cc1cccc(-c2noc(-c3cccnc3N3CCC(C(=O)NCc4ccc(F)cc4F)CC3)n2)c1 | i | -0.08
O=C(NC1CCS(=O)(=O)C1)c1cccc(NC(=O)c2nsc3ccccc23)c1 (stereo not given) | i | -0.53
Cc1ccc(C)c(Cn2nc3c(S(=O)(=O)N4CCc5ccccc5C4)cccn3c2=O)c1 | i | -0.47
Cc1sc(-c2cc(C(F)(F)F)on2)cc1S(=O)(=O)N1CCCc2ccccc21 | i | 0.46
COCCNC(=O)C1CCCN1S(=O)(=O)c1cc2c(cc1Cl)NC(=O)CO2 (stereo not given) | i | 0.24
COc1ccc(C)cc1Nc1c2c(nc3ncnn13)CCC2 | i | 0.04
Cc1ccc(C(C)(O)C(CN2CCOCC2)c2ccccc2)cc1 (stereo not given) | i | 0.33
CCc1ccc(S(=O)(=O)c2cnc(N3CCN(c4cccc(Cl)c4)CC3)nc2N)cc1 | i | 1.9
O=S(=O)(c1ccc2c(c1)CCCC2)N1CCC2(CC1)NCCN=C2NC1CCCCCC1 | i | -0.75
COc1ccc(Cl)cc1NC(=O)Cc1csc(-n2nc(C)cc2C)n1 | i | 1.2
COc1ccc(NC(=O)CSc2nccc3c2ccn3C)cc1OC | i | -0.87
C=CCNC(=O)C1CCCN(C(=O)c2cccc(NS(=O)(=O)c3ccc(C(C)(C)C)cc3)c2)C1 (stereo not given) | i | -0.11
O=C(Cc1ccccc1)NCCc1nc2ccccc2[nH]1 | i | 0.17
O=C(NCc1ccc2c(c1)OCO2)Nc1ccc(-c2noc(C3CCC3)n2)cc1 | i | 1
CC(C)NC(=O)C1CCCN(S(=O)(=O)c2cc(-c3noc(C4CCC4)n3)cs2)C1 (stereo not given) | i | -1.1
COc1ccc(CN2CCCC2c2cc(C)on2)cc1 (stereo not given) | i | -2.3
CN(C)S(=O)(=O)c1ccc2c(c1)nc(C(F)(F)F)n2CCC(=O)Nc1cccc(F)c1 | i | 0.61
Cc1ccc(C(=O)Nc2ccc3nc(N4CCN(C5CCCCC5)CC4)cc(C(=O)O)c3c2)cc1 | i | -1.7
c1ccc(Cn2cnnc2C2CCCN(Cc3cccs3)C2)cc1 (stereo not given) | i | -0.29
Cn1c(SCc2nc(-c3ccc(Br)cc3)no2)nc2ccsc2c1=O | i | -0.24
Cc1cccc(SCc2cc(=O)n3oc(C)cc3n2)c1 | i | 0.03
Cc1cccc(-c2noc(-c3cccnc3N3CCC(C(=O)NCC4CCCCC4)CC3)n2)c1 | i | 0.28
CCc1c(C)nc2nc(Cc3cccc(F)c3)nn2c1NCc1ccccc1 | i | 1.1
Cc1cccc(-c2nc3ccccc3c3nnc(SCC(=O)NC(C)C)n23)c1 | i | -0.31
C=CCC(O)(c1ccc(C)cc1)C(CN1CCOCC1)c1ccccc1 (stereo not given) | i | 0.39
COc1ccc(C(CNC(=O)COc2ccccc2Cl)c2c[nH]c3ccccc23)cc1 (stereo not given) | i | 1.1
O=C(C1CCCN(c2nc3cccnc3s2)C1)N1CCN(c2ccccc2)CC1 (stereo not given) | i | 0.4
COc1ccc(NC(=O)c2nnc(COCC(=O)N3CCN(c4ccc(OC)cc4)CC3)s2)cc1 | i | 0.96
C=CCSc1ncc(Cl)c(C(=O)Nc2sc3c(c2C(=O)OC)CCCC3)n1 | i | 0.33
CC1CCCN(c2ccc(-c3noc(CN4CCOCC4)n3)cn2)C1 (stereo not given) | i | -1.7
Cc1nc(-c2csc(S(=O)(=O)N3CCCC(C(=O)N4CCCCC4)C3)c2)no1 (stereo not given) | i | -0.32
CC(C)NC(=O)c1ccc(-c2cc(N3CCCC3)ncn2)cc1 | i | -0.4
CCOC(=O)c1noc2ncnc(Nc3cccc(C)n3)c12 | i | -0.17
CCCCC[C@](C)(O)/C=C/[C@@H]1[C@@H](C/C=C\CCCC(=O)OC)[C@@H](O)C[C@H]1O | i | 0.94
CCc1ccc(NC(=O)N(C)CCc2noc(-c3ccc(C)cc3)n2)cc1 | i | -0.42
CCOC(=O)c1ccccc1NC(=O)Cn1cc(S(=O)(=O)c2ccc(C)c(C)c2)c(=O)c2ccc(C)nc21 | i | -0.09
CCCn1c(C2CCCO2)nc2ccccc21 (stereo not given) | i | 0.03
CCCSc1nc2c(c(=O)[nH]1)CCC2 | i | -0.57
O=C(CCCc1nnc(C(=O)Nc2ccccc2)s1)NCCc1c[nH]c2ccc(Cl)cc12 | i | -0.09
COc1ccc(-c2cnc(C)o2)cc1S(=O)(=O)N1CCN(c2ccccn2)CC1 | i | -0.62
O=C(Nc1noc2ccccc12)C1CC1 | i | -1.5
COCCCNC(=O)C(=O)NCc1n[nH]c(=O)c2ccccc12 | i | 0.54

Quoted from the listing for reference:
SMILES | Anaer choline gr | Anaer choline gr early
COc1ccc(Br)cc1C(=O)Nc1cc2c(cc1Sc1ccccc1)n(C)c(=O)n2C | i | 0.2
O=C(NC1CCCC1)c1csc(N2CCCC2)n1 | i | 0.27
CCn1c(Cn2cccn2)nc2cc(NC(=O)C3CCCCC3)ccc21 | i | -0.16
COc1cccc(-c2cc(C(F)(F)F)n3ncc(C(=O)NCc4ccccc4OC)c3n2)c1 | i | -1.1
CC/C=C\C/C=C\C/C=C\C/C=C\C/C=C\C/C=C\CCC(=O)O[C@H](COCCCCCCCCCCCCCCCC)COP(=O)([O-])OCC[N+](C)(C)C | i | -1.5
Cn1c(=O)c2c(nc(Sc3nnc(NC(=O)NCC4CCCO4)s3)n2C)n(C)c1=O (stereo not given) | i | 0.06
COc1ccc(C(=O)N2CCN(c3cc(N(C)C)nc(C)n3)CC2)cc1 | i | 0.32
Cc1ccc(-n2ccnc(NCCC3=CCCCC3)c2=O)cc1 | i | -1.4
O=C(NC1CC1)c1c(-n2cccc2)sc2c1CCC2 | i | 0.04
Cn1c(=O)n(-c2ccc3c(c2)OCO3)c2nc(-c3ccccc3)nc(C(N)=O)c21 | i | -0.28
Cc1ccc(S(=O)(=O)NCCn2c(-c3ccncc3)nc3cccnc32)cc1C | i | -0.75
CCC(C(=O)NCc1ccc(C)cc1)N1C(=O)CCCc2ccccc21 (stereo not given) | i | -1.1
COc1ccc(CC(=O)NCCc2n[nH]c(Cc3ccc(C)cc3)n2)cc1OC | i | 0.06
CC1CCN(C(=O)Cn2cc(SCC(=O)N3CCCCC3)c3ccccc32)CC1 | i | -0.25
